CDC25B-CDK2 inh – human CDC25B-CDK2/CyclinA binding inhibition; HTRF CDC25B-CDK2/CyclinA binding, anti-His/anti-Flag; active compounds read high; AID 1259370; P30305+P24941; z-score (concentration not given with the values); actives 0.72% (n = 94,000);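 further: score is relative to mean and SD of negative controls; strong numbers were not always called active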
TAR Tat displ – HIV-1 TAR-Tat binding disruption. z-score (concentration not given with the values). actives 0.6% (n = 100,000). AID 1259389. HIV-1 TAR RNA, Tat peptide displacement FRET; active compounds read high;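 further: score is relative to mean and SD of negative controls; some compounds called inactive have numbers as strong as hits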
Numbers without * were called inactive; . = not tested or not shown.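 How the source made its calls: active means z-score from 3 up in half or more of its runs; inactive means the rest.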

Molecule,CDC25B-CDK2 inh,TAR Tat displ
COC(=O)c1cc2sccc2n1Cc1ccccc1F,2.2,-0.67
Fc1ccc(-c2nnc(CN3CCN(c4ccccc4)CC3)o2)cc1,0.62,0.03
Cc1nc2ccc(C(=O)O)cc2c2c1CC(C)O2 (configuration not stated),-0.67,.
O=C(/C=C/c1ccccc1)OCCCCN=C1NS(=O)(=O)c2ccccc21,1.1,.
O=c1cc(CSc2nc3ccccc3c3nc(-c4ccccc4)nn23)nc2ccccn12,-1.2,.
CCOC(=O)c1nnn(-c2ccccc2OCC)c1C(=O)OCC,-1.2,-0.4
CSc1nsc(SCC(=O)OC2CC3CCC2(C)C3(C)C)n1 (configuration not stated),0.85,-0.87
Cc1ccc(-n2nc(C)c3c(C(F)(F)F)cc(-c4ccncc4)nc32)cc1,1.8,2
O=C(CCCc1nc(-c2cccs2)no1)NC1CCCCC1,-1.3,2.3
CCOc1ccc(-c2noc(-c3nnn(-c4cc(C)ccc4OC)c3N)n2)cc1,.,2.3
CCN(CCN(C)C)C(=O)c1nn(C)c2c1COc1ccccc1-2,-1.2,1.6
O=C(NCc1cccs1)C1CCN(C(=O)N2CCOc3ccccc32)CC1,.,0.99
Cc1ccccc1-c1noc(-c2nnn(-c3ccccc3)c2N)n1,.,0.17
COc1ccc(CCN2C(=O)CSC2c2ccc(OC)c(OC)c2)cc1OC (configuration not stated),-0.7,0.69
COCCN1C(=O)c2c(NC(C)=O)c3cc(F)ccc3n2CC1(C)C(=O)NC1CCCC1 (configuration not stated),.,1.1
COc1ccccc1C1C(C#N)=C(N)Oc2n[nH]c(C)c21 (configuration not stated),-0.95,0.15
CN1CCN(C(=O)CCC(=O)N2CCSc3ccccc32)CC1,.,1.3
CCSc1ncc(Cl)c(C(=O)Nc2nnc(SC)s2)n1,-1.4,0.01
CC(C)Nc1nc(NC(C)C)nc(Oc2ccc(=O)[nH]n2)n1,-0.97,0.48
CC1CCN(S(=O)(=O)c2cn(CC(=O)N3CCc4ccccc43)cn2)CC1,.,0.74
C=CCc1ccccc1OCc1cc(=O)n2c3c(sc2n1)CCCC3,0.17,-0.39
Cc1ccc2nc(N3CCc4ccccc43)c3nnnn3c2c1,.,1
CCc1cc2c3c([nH]c2cc1S(=O)(=O)NCCCN1CCOCC1)CCCC3=O,.,1.2
COc1ccc(-c2csc(-c3nc(-c4ccc5c(c4)OCO5)cs3)n2)cc1,.,-0.83
O=C(COc1ccc(SC(F)(F)F)cc1)NNC(=O)c1ccc(Cl)cc1,-1.1,.
O=C(NCCCN1CCN(C2CCCCC2)CC1)C1CCN(c2nnc(-n3cccc3)s2)CC1,0.79,1.7
COCCN1C(=O)C(=O)/C(=C(/O)c2ccccc2)C1c1ccc(OC)cc1OC (configuration not stated),-2.9,1.8
N=C(N)c1ccc2cc(OC(=O)c3ccc(N=C(N)N)cc3)ccc2c1,.,1.3
NC(=O)c1cc(S(=O)(=O)NCCSCc2ccco2)cs1,.,0.56
COc1ccc(/C=C/c2nn3c(-c4ccccc4OC)nnc3s2)cc1,-2,1.7

Reprinted from the entries so far for reference:
Molecule,CDC25B-CDK2 inh,TAR Tat displ
O=C(/C=C/c1ccccc1)OCCCCN=C1NS(=O)(=O)c2ccccc21,1.1,.
O=c1cc(CSc2nc3ccccc3c3nc(-c4ccccc4)nn23)nc2ccccn12,-1.2,.

Continued:
Molecule,CDC25B-CDK2 inh,TAR Tat displ
COc1cc2ccccc2cc1C(=O)Nc1cccc(-c2nc3cc(C)ccc3o2)c1C,-2,.
Clc1cccc(Nc2c3c(nc4ncnn24)CCCC3)c1,.,1.1
CC1=C(C(N)=O)C(c2ccccc2F)n2nnnc2N1 (configuration not stated),-0.61,-1.3
Cc1ccc(NS(=O)(=O)c2ccc3c(c2)CCN3S(C)(=O)=O)cc1Cl,.,1.1
CC(C)CC(=O)NC(NC(=S)Nc1ccccc1Br)C(Cl)(Cl)Cl (configuration not stated),-2.3,.
CCOC(=O)N1CCN(c2nc3ccccc3n3nnnc23)CC1,1.5,-5.2
Cn1c(=O)c2c(SCC(=O)NCC3CCCO3)nc(-c3ccc(F)cc3)nc2n(C)c1=O (configuration not stated),-2.1,.
COc1cc(Nc2cnn(-c3nc4ccccc4s3)c(=O)c2Cl)cc(OC)c1,-8.7,-1.1
Cc1ccc2c(c1)-c1cc(C)nn1C(c1ccsc1)N2 (configuration not stated),0,0.03
CCOc1ccc(NS(=O)(=O)c2ccc3c(c2)oc(=O)n3C)cc1,-1.3,-0.53
O=c1oc(-c2ccco2)nc2sc3c(c12)CCCC3,-1,1.4
COc1ccc(N2CCN(C(=O)c3nc(S(C)(=O)=O)ncc3Cl)CC2)cc1,1.3,2.1
CC1SCC(=NOC(=O)Nc2ccc(Cl)cc2)CS1 (configuration not stated),-1.5,.
COC(=O)c1ccc(-c2ccc(CNCCSc3nnnn3C)o2)cc1,-0.22,-0.94
COc1ccc(OC)c(NC(=O)NCc2c(-n3cccc3)sc3c2CCN(C)C3)c1,.,-7.3
Cc1nn(CCCC(=O)NCCCN2CCCCCC2)c(=O)c2cc3sccc3n12,-1.8,.
NC(=O)NCC(N)C(=O)O (configuration not stated),.,-1.7
COc1ccccc1-c1coc2cc(OCC(=O)OCC(C)C)ccc2c1=O,-0.95,0.96
CCOC(=O)C1=C(C)Nc2nnnn2C1c1ccc(OC)cc1 (configuration not stated),-1.9,1.6
CC(=O)OCc1ccc(/C=C(\C#N)S(=O)(=O)c2ccc(Cl)cc2)o1,-0.97,.
CCCn1c2ccccc2c2cnn(CC(=O)NCCN3C(C)CCCC3C)c(=O)c21 (configuration not stated),.,1.6
CN(C(=O)c1ccccc1)C(c1cccs1)c1c[nH]c2ccccc12 (configuration not stated),0.46,0.18
O=C(Nc1ccc(F)c(Cl)c1)N1CCC2(CC1)Nc1cc(F)ccc1-n1cccc12,.,-0.3
COc1ccc(-c2nc(C)c(CCNS(=O)(=O)c3cccs3)s2)cc1OC,.,1.2
Cc1cc(C)cc(OCc2nc(-c3ccc(-n4cccc4)cc3)no2)c1,-1.2,-0.61
COc1ccc(-c2n[nH]c3c2C(c2cccnc2)NC3=O)cc1 (configuration not stated),-0.79,0.25
CCOC(=O)c1nc(NCCOC)c2ccccc2n1,.,2
Cc1cc(Nc2ccccc2)n2nc(-c3ccco3)nc2n1,.,0.23
COc1ccc(-c2nc(Nc3nc4ccccc4o3)ncc2C#N)cc1,-1.6,-0.97
COC(=O)c1sc(=S)n(-c2ccccc2F)c1N,.,2.5
O=C(c1ccco1)N1CCN(c2nc3c(S(=O)(=O)c4ccccc4)nnn3c3ccccc23)CC1,.,0.46
CN1C(C(=O)Nc2cccc(O)c2)=CC(c2ccc3c(c2)OCO3)=NS1(=O)=O,-0.64,0.06
O=C(c1ccco1)N1CCn2c1nc1ccccc12,.,2.2
C=CCN1C(C(=O)c2ccccc2)=C(OC(=O)CN2C(=O)CCC2=O)c2ccccc2S1(=O)=O,-0.73,3.5
O=S(=O)(c1ccc(F)cc1)N1CCN(c2ccc(F)cc2)CC1,0.46,0.73
N/C(=N\C(=S)Nc1ccccc1)N1CCOCC1,-1.9,.
Cc1cc(NC(=O)CN2C(=O)CN(c3ccc(Br)cc3)C2=O)no1,-1.9,1.5
COc1ccc2c(c1)OCC(Cc1ccc(OC)c(OC(C)=O)c1)C2=O (configuration not stated),.,1.1
CN1CCN(c2ccc3nnc(CCC(=O)N4CCCCC4)n3n2)CC1,.,1.6
CCCn1cc(S(=O)(=O)c2cc(C)cc(C)c2)c(=O)c2cc(F)c(N3CCN(CC)CC3)cc21,.,1.1
Cn1c(=O)c2sccc2n2c(CCCC(=O)NCc3ccc4c(c3)OCO4)nnc12,-1.4,1
N#CC1(NNC2(C#N)CCCCC2)CCCCC1,-3.6,.
COc1cccc(-c2noc(-c3ccc(Br)cc3)n2)c1,-1.8,1.8
CCCCC12CN3CC(C)(CN(C1)C3c1ccc(O)c(O)c1)C2=O (configuration not stated),-2,0.65
COC(=O)c1cc2cc(S(=O)(=O)N(C)C)ccc2n1Cc1ccncc1,-0.33,2.1
CC(C(=O)NCc1cccs1)S(=O)(=O)c1ccc2c(c1)S(=O)(=O)N=CN2 (configuration not stated),.,2
Fc1ccc(-c2noc3ncnc(N4CCc5ccccc5C4)c23)cc1,.,1.2
CCOC(=O)c1cnc(Nc2nc3ccccc3o2)nc1C,1.1,-0.94
Cc1nn(CC(=O)N2CCN(c3ccccn3)CC2)c(=O)c2cccn12,-1.1,0.38
CCOC(=O)Cn1c(=O)c2c(nc3n2CCN3c2ccc(Cl)cc2)n(C)c1=O,.,1.7

(listing goes on)
Molecule,CDC25B-CDK2 inh,TAR Tat displ
O=C(Nc1cccc(Cl)c1)Nc1nc(-c2ccccc2)cs1,-0.51,.
CN1CCSc2ccc(C(=O)NCCCN3CCOCC3)cc21,-3.1,2.3
CCc1c(C)nc2ncnn2c1Nc1cc(Cl)c(OC)cc1OC,0.53,0.69
Oc1ccc(NCc2cccc(Br)c2)cc1,-0.59,-0.36
CCCNC(=O)C1CCC(Cn2c(=O)c3sccc3n(CC(=O)N3CCC(C)CC3)c2=O)CC1 (configuration not stated),.,1
O=c1c(-c2ccc(Cl)cc2)c(C(F)(F)F)oc2cc(O)ccc12,0.51,1.7
CCCCNc1nc(Oc2ccc(=O)[nH]n2)nc(N(CC)CC)n1,-1.9,1.4
CCOC(=O)N1CCN(C(=O)Cn2ncc3ccc(Cl)cc32)CC1,0.49,0.38
CCn1c(C)[n+](CC(O)COc2ccccc2OC)c2ccccc21 (configuration not stated),-0.22,0.87
CSc1nc(-c2ccccn2)nc(N)c1C#N,-1,.
CCSC(SCC)[C@@H](O)[C@H](O)[C@H](O)[C@@H](O)CO,-0.23,.
O=C1NC(c2cccc(F)c2)c2c1n[nH]c2-c1ccco1 (configuration not stated),-0.34,-2.8
c1ccc(CCN2CCc3nc(Nc4ccc5c(c4)OCO5)ncc3C2)cc1,.,1.8
CCc1nn2c(-c3ccco3)ccnc2c1-c1ccccc1,-1.6,-7.3
Cc1ccc(COc2ccc(C)nc2[N+](=O)[O-])cc1,-1.1,.
CCCOC(=O)C1=C(C)Nc2nnnn2C1c1ccccc1OCCC (configuration not stated),-0.89,-2.2
Cc1cc2ncc(N=Nc3ccccc3)c(-c3ccc(Cl)cc3)n2n1,-0.13,.
COc1ccccc1Nc1nc2c(S(=O)(=O)c3ccccc3)nnn2c2ccsc12,.,-1.9
CSc1nc(NC(=O)NS(=O)(=O)c2ccccc2Cl)nc(N(C)C)n1,-1.9,.
CCn1cc(S(=O)(=O)c2ccc(Cl)cc2)c(=O)c2ccccc21,-0.89,-0.63

Gathered by group: those above containing an NH in an aromatic ring.
Molecule,CDC25B-CDK2 inh,TAR Tat displ
COc1ccccc1C1C(C#N)=C(N)Oc2n[nH]c(C)c21 (configuration not stated),-0.95,0.15
CC(C)Nc1nc(NC(C)C)nc(Oc2ccc(=O)[nH]n2)n1,-0.97,0.48
CCc1cc2c3c([nH]c2cc1S(=O)(=O)NCCCN1CCOCC1)CCCC3=O,.,1.2
CN(C(=O)c1ccccc1)C(c1cccs1)c1c[nH]c2ccccc12 (configuration not stated),0.46,0.18
COc1ccc(-c2n[nH]c3c2C(c2cccnc2)NC3=O)cc1 (configuration not stated),-0.79,0.25
CCCCNc1nc(Oc2ccc(=O)[nH]n2)nc(N(CC)CC)n1,-1.9,1.4
O=C1NC(c2cccc(F)c2)c2c1n[nH]c2-c1ccco1 (configuration not stated),-0.34,-2.8

(further entries)
Molecule,CDC25B-CDK2 inh,TAR Tat displ
Cc1ccc(-c2c(NC3CCCCC3C)c(=O)c2=O)cc1C (configuration not stated),.,1.3
CCOc1ccc(Nc2nc(N3CCOCC3)c3ccccc3n2)cc1,-0.02,0.63
Cc1ccc(C(=O)N2CCN(C(=O)CSc3nnc(N)s3)C2)cc1,1.2,0.95
CCOC(=O)c1c(NC(=O)c2ccco2)sc2c1CCC2,0.81,-1.3
CCC(=O)OCCNc1cc(N2CCN(C)CC2)c2noc3c2c1C(=O)c1ccccc1-3,-1.5,-1.2
CC1(C(=O)NC2CCCC2)Cn2c(ccc2-c2ccco2)C(=O)N1CCN1CCCC1 (configuration not stated),.,-0.82
Cc1c(C(=O)N(C)c2cccc(Cl)c2)sc2nc3n(c(=O)c12)CCCC3,.,1.8
Cc1ccccc1Nc1c(-c2ccc(N(C)C)cc2)nc2cnccn12,-2.5,0.1
Cc1ccccc1C(=O)N1CCc2cc3cccc(C)c3nc21,-0.23,0.24
Clc1ccccc1-c1ccc(-c2nn3c(-c4ccco4)nnc3s2)o1,15*,0.54
CCCc1nc2c3ccccc3[nH]c(=O)n2n1,1.2,0.94
COc1cc(O)ccc1C1Nc2ccc(C)cc2-c2cc(C)nn21 (configuration not stated),-1.6,0.96
O=c1c(NCc2ccco2)nccn1-c1cccc(Cl)c1,.,0.74
CCCC1=C(c2ccccc2)C(=O)NC1,-0.41,.
Cc1ccc(S(=O)(=O)n2nc(-c3cccnc3)nc2NCc2cccs2)cc1,-1.3,-1.5
C=CCN1C(=O)C2(/C(=C(/O)c3ccc(Cl)cc3)C(=O)C(=O)N2CC2CCCO2)c2ccccc21 (configuration not stated),0.8,0.72
CC1=C(C(=O)Nc2ccccc2C)C(c2cccs2)C(C#N)=C(SCC(N)=O)N1 (configuration not stated),-0.82,.
CCOCC(=O)Nc1c(C(=O)N2CCN(c3ncccn3)CC2)oc2ccccc12,.,-0.05
